# Screens deposited in PubChem by several laboratories.
# Sa RN4220 lethal: S. aureus RN4220 growth inhibition; OD600, 16 h; AID 1259311; 330,000 compounds, 0.33% hits; inhibition, % (no concentration beside the values);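 active means z-score of -3 or lower and OD600 up to 0.18 on both plates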;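 further: plate controls were untreated cells for no effect and reference antibiotic for full effect; stock transfer was 100 nL into about 80 µL; one replicate is shown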
# PrP UTR inh: inhibition of PrP 5' UTR reporter expression; cell-based PrP 5' UTR mRNA reporter, plate reader; inhibition, % (concentration not given with the values); 340,000 compounds, 0.35% hits;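 active means every replicate at 50% or more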;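 further: 0 = median of the neutral control wells; tested in H4 reporter cells; numbers are from one replicate; inactives centre near -14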
# ugtP null kill: compounds lethal to S. aureus RN4220 ugtP deletion mutant; OD600 growth, 16 h; some inactives read as strong as hits; growth inhibition, % (no concentration beside the values); 330,000 compounds, 0.54% hits;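 active means z-score under -3 and OD600 up to 0.15 on both plates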;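 further: plate controls were untreated wells for no effect and antibiotic for full effect; wells of about 80 µL received 100 nL stock; the first replicate is given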
# BJeLR viability: kills HRASV12-expressing BJeLR cells. 300,000 compounds, 0.17% hits. AID 1554. BJeLR (HRASV12) viability, CellTiter-Glo ATP luminescence, 48 h; reference of the scale not given here. inhibition, % (concentration not given with the values);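 active means replicate mean above 50%; inconclusive means above 50% but judged a plate artefact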;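 further: 50 nL library stock added to about 25 µL; numbers are from one replicate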
# Mtb hypoxia inh: inhibitors of hypoxia-regulated fluorescent reporter in Mycobacterium tuberculosis; M. tuberculosis hypoxia-regulated fluorescent reporter, fluorescence; fluorescence inhibition, % (concentration not given with the values); 300,000 compounds, 0.1% hits; AID 1159583;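 active means 35 to 45% if threefold the growth effect, above 45% if 1.5-fold the growth effect; inactive means the rest, general growth blockers included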;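 further: wells of about 50 µL received 100 nL stock; 0% = vehicle wells and 100% = reference inhibitor wells; whole bacteria with a GFP reporter of the hypoxia response; strong numbers were not always called active; many hits fall short of the cut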
# Bead autofluor: flagged as autofluorescent in microsphere protease counterscreen; fluorescence intensity (concentration not given with the values); compound autofluorescence counterscreen, microsphere flow cytometry; active compounds read high; 360,000 compounds, 3.1% hits; AID 624483;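 active means at least 3 SD above the mean of all compounds, about 16000 in these data; inconclusive means too few beads counted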;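 further: 100 nL of 1 mM stock went into each well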
# Mtb hypoxia inh growth: further read-out of Mtb hypoxia inh, marked with its call; growth inhibition, %; measured here: M. tuberculosis growth (absorbance);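 0% = vehicle and 100% = reference antibiotic; read after six days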
# The depositor's hits bear a star; ? = inconclusive; . = not tested or not shown.
SMILES,Sa RN4220 lethal,PrP UTR inh,ugtP null kill,BJeLR viability,Mtb hypoxia inh,Mtb hypoxia inh growth,Bead autofluor
Cc1cc(C)nc(Nc2cccc(C(F)(F)F)c2)n1,0.0,-25.3,2.6,3.6,0.7,0.0,3338
O=C(/C=C/c1ccco1)NCC(=O)N/N=C/c1ccc([N+](=O)[O-])cc1,.,-30.0,.,-4.0,.,.,2238
OC1CCN(c2c3c(nc4cc(-c5ccc(F)cc5)nn24)CCC3)CC1,8.8,3.6,5.6,-1.8,6.8,3.4,3927
O=c1nc(NC2CCCC2)ccn1Cc1cccc(Br)c1,3.6,-4.0,-0.4,-2.2,15.1,12.9,5323
CCN1/C(=C2\OC(=S)N(C)C2=O)C=Cc2ccccc21,2.4,22.0,9.5,3.9,13.4,5.0,4793
Cc1ccc(-c2ccc(CCC(=O)O)n2-c2ccc(C(=O)O)cc2)cc1,.,7.7,.,-2.5,.,.,3721
CNc1nc(Cl)c(SC)c(N2CCOCC2)n1,8.5,-0.6,4.4,3.2,7.4,5.0,2651
O=C(Cc1ccc(Cl)cc1)NN=C1CCCc2ccccc21,-16.5,.,1.8,.,4.8,3.2,.
CCOc1cc(S(=O)(=O)Nc2ccccn2)ccc1F,4.8,-16.7,1.3,7.3,.,.,2726
CCc1cc(=O)oc2cc(C)cc(OCC(=O)NCC3CCC(C(=O)O)CC3)c12 (centres undefined),2.1,-22.7,2.4,2.9,.,.,5820
CCn1c(SCC(=O)NNC(=O)c2ccc(OC)cc2)nnc1C(C)C,0.3,0.5,-1.2,-3.8,-25.5,-8.8,6339
COc1ccc(CCNC(=O)C2CCN(c3ccc(N4CCOCC4)nn3)CC2)c(OC)c1,6.8,-27.3,-1.5,-13.3,-8.9,1.4,5869
O=C(CC1C[C@H](C(=O)N2CCCCC2)[C@@]2(CCc3ccccc3)c3[nH]c4ccccc4c3CCN2C1=O)NCCc1ccccn1 (some centres undefined),4.8,-11.4,0.6,.,-10.1,1.5,3572
CCOc1ccc(/C=C/C(=O)c2c(O)cc(C)oc2=O)cc1,0.9,-32.0,53.9,14.0,9.2,22.9,4021
CCOCCCNC(=S)Nc1ccc2nc(N3CCOCC3)cc(C)c2c1,2.7,-22.1,-4.8,-1.0,-7.3,6.6,3607
COc1ccccc1-n1c(SCC(=O)c2ccc(O)cc2O)nc2cc([N+](=O)[O-])ccc21,0.4,-116.8,-4.7,4.9,-0.4,0.4,2161
CCOC(=O)C1CCN(C(=O)CN(Cc2ccc(Cl)cc2)S(C)(=O)=O)CC1,3.9,-3.5,6.2,-9.7,.,.,4905
O=C(O)[C@H]1Cc2ccccc2CN1S(=O)(=O)c1ccc(F)cc1,3.4,-18.4,-2.0,-0.9,9.3,-5.0,3452
C=CCn1c(SCC(=O)NCC2CCCO2)nnc1-c1ccncc1 (centres undefined),-1.2,-3.4,-5.0,.,7.1,-6.4,.
O=C(Cn1ncc2c3ccccc3n(Cc3ccc(F)cc3)c2c1=O)N1CCN(c2ncccn2)CC1,2.3,-9.2,1.2,-2.0,-1.7,16.0,3780
CCOC(=O)c1c(C)[nH]c(C)c1C(=O)COC(=O)/C=C/c1cccc(F)c1,1.0,-12.0,-5.0,-5.9,-3.0,1.5,8050
Cc1cc(C)cc(C(=O)NC(CC(N)=O)c2ccc(NC3CCCCCC3)c([N+](=O)[O-])c2)c1 (centres undefined),-6.5,-11.4,-38.2,-4.6,4.1,5.8,2768
COc1cc(C(=O)Nc2ccc(S(=O)(=O)Nc3ncccn3)cc2)c([N+](=O)[O-])cc1OC,4.3,-25.3,9.2,0.6,17.5,18.2,2478
FC(F)(F)c1cnc(N2CCSCC2)c(Cl)c1,4.7,-13.4,19.0,-3.0,10.4,4.5,4831
Cc1ccc(S(=O)(=O)Nc2cc(Cl)c(O)c3ncccc23)cc1,.,21.7,.,22.1,.,.,5378
CCOC(=O)NC1(C(F)(F)F)C(=O)NC(C)=C1C(=O)OC (centres undefined),4.9,-30.2,6.9,-6.4,10.2,6.0,13106
OCC1(Cc2ccc(Cl)cc2)CCN(CCCc2ccccc2)CC1,-3.2,-65.4,-13.1,-0.9,4.3,4.4,3384
CCOC(=O)C1CCCN(C(=O)c2ccc(CS(=O)(=O)Cc3ccccc3C)o2)C1 (centres undefined),11.9,-7.4,-4.9,14.7,9.1,3.8,7228
O=C(CN1CCN(Cc2ccc(F)cc2)CC1)Nc1nc2ccccc2s1,1.0,-8.1,7.8,0.0,2.8,1.5,4335
COc1ccccc1OCC(=O)Nc1ccc(S(=O)(=O)NC(C)=O)cc1,0.3,-17.4,-3.3,1.2,-1.3,-4.4,11153
COc1ccc(CCN2CC(C(=O)NCCc3ccccc3C)CCC2=O)cc1 (centres undefined),.,-12.5,.,5.8,.,.,5865
Cc1ccccc1-c1nc(CS(=O)(=O)CC(=O)NC2CC2)c(C)o1,5.2,-12.9,9.8,-3.9,7.2,-1.3,4963
Cc1ccc(C(=O)NNC2=Nc3cc([N+](=O)[O-])ccc3OC2)cc1,0.8,-15.7,6.4,-20.0,19.7,4.5,3418
Cc1onc(-c2ccccc2Cl)c1C(=O)NC(C)c1ccccc1 (centres undefined),3.8,-3.0,5.0,-6.3,1.0,4.0,3024
Cc1[nH]c2ccccc2c1/C=N\NC(=O)Cn1nnc(-c2ccccc2)n1,.,-4.0,.,-6.8,.,.,2005
Oc1ccc(F)c2cccnc12,23.2,-0.5,12.2,2.6,7.5,2.6,4845
CCCCn1nnc(NC(=O)COc2cc(C)ccc2C(C)C)n1,10.4,-22.0,7.9,-4.3,.,.,3230
C[C@H](NC(=O)C1CCC(CNC(=O)[C@@H]2CCCN2C(=O)OC(C)(C)C)CC1)C(=O)O (some centres undefined),-1.9,-10.2,-3.1,-4.3,-13.6,4.2,3691
C/C(=C\c1cccs1)C(=O)c1c(C)cc(C)[nH]c1=O,2.1,-15.5,-5.6,-7.4,15.2,12.2,3589
O=S(=O)(Cc1c(F)cccc1Cl)c1ncn[nH]1,0.6,-28.5,0.1,-9.6,2.6,18.2,3372
CC(C)COC(=O)Nc1ccccc1C(=O)N1CCOCC1,-8.9,-22.5,2.5,-3.3,6.6,7.5,2353
CC1CCC2(CC1)NC(=O)N(NC(=O)c1cccc(N(C)C)c1)C2=O (centres undefined),2.6,-14.1,4.8,.,23.8,6.1,2700
O=C(COC(=O)/C=C/c1ccccc1)NC1CC1,0.4,-30.8,1.9,.,0.1,-4.6,6614
O=C(O)C(Cc1ccccc1)NC(=O)C(Cc1ccccc1)NC(=O)C12CC3CC(CC(C3)C1)C2 (centres undefined),0.8,.,3.1,-5.8,0.8,-4.5,4367
CN1C(=O)NC(=O)[C@]2(Cc3ccccc3N3CCN(c4ccccc4)CC32)C1=O (some centres undefined),2.9,-5.3,9.7,-2.4,5.2,4.5,16912*
COc1ccc2c(c1)CC=C1C2CCC2(C)C(=O)C(=NO)CC12 (centres undefined),12.1,-6.1,7.6,.,9.7,11.2,3906
COc1c2ccccc2c(OC)c2ccccc12,7.9,-7.8,8.3,3.0,2.7,8.7,2108
O=C(c1ccccc1)N1CCN(C2c3cccc4cccc(c34)C2NS(=O)(=O)c2ccccc2)CC1 (centres undefined),3.5,-79.3,-8.8,1.5,1.5,4.2,23933*
CCN(CC(=O)Nc1ccc(NC(C)=O)cc1)CC(=O)Nc1cccc(Cl)c1,2.1,-8.9,2.6,1.4,7.8,-1.1,3099
CN(C(=O)C1CCCCC1)C1(C)CCS(=O)(=O)C1 (centres undefined),1.1,-11.5,2.2,0.6,6.4,-8.4,6829
CC(C)c1onc(C(=O)Nc2cccnc2Cl)c1[N+](=O)[O-],10.7,1.5,9.4,-5.5,-1.3,2.5,2837
CC(Sc1ncn[nH]1)C(=O)NCc1ccccc1 (centres undefined),1.8,-54.9,3.0,12.9,0.6,-8.5,4236
COC(=O)C(Cc1cccc(C)n1)(c1ccccc1)c1ccccc1,6.4,-10.4,10.0,4.3,10.0,11.3,3892
COC(=O)Cc1ccc(NC(=S)N2CCN(CCO)CC2)cc1,5.1,-7.5,-1.1,-4.1,-12.4,-6.4,?
CCOC(=O)C1(Cc2ccc(Cl)cc2)CCN(C(=O)C2CCCO2)CC1 (centres undefined),4.7,-16.8,-3.8,2.1,14.1,11.0,2051
CCN1CCN(S(=O)(=O)c2ccc(Cl)c(C(=O)Nc3ccccc3N3CCCC3)c2)CC1,8.3,-21.5,12.9,-3.9,5.4,4.4,6036
C/C(=N\Nc1nc(N)cc(Cl)n1)c1cccc([N+](=O)[O-])c1,.,-30.0,.,4.2,.,.,22572*
O=C1c2cccc3c(O)ccc(c23)C(=O)N1Cc1ccccc1,25.8,1.0,26.6,-6.4,.,.,7829
Cc1ccc(C)c(OCC(=O)Nc2cc(C)on2)c1,6.0,-31.9,-13.5,1.4,0.7,2.8,5211
CCc1ccc(OCc2nnc(SCC(=O)NCC3CCCO3)n2C)cc1 (centres undefined),2.2,-14.0,5.4,-13.2,13.0,6.1,4681
# Continuation:
SMILES,Sa RN4220 lethal,PrP UTR inh,ugtP null kill,BJeLR viability,Mtb hypoxia inh,Mtb hypoxia inh growth,Bead autofluor
COc1ccccc1CNC(=O)CSc1nnc2c(Cl)cc(C(F)(F)F)cn12,-1.1,-34.4,12.5,2.7,-2.8,7.4,2155
Cc1nn(CCC#N)c(C)c1Oc1ccccc1O,4.2,-21.0,-2.9,6.1,12.7,7.6,4551
COc1ccc2[nH]c(C(=O)NN=Cc3cc(OC)c(OC)c(OC)c3)cc2c1,37.1,.,20.8,.,6.7,18.5,.
CCc1nnc(NC(=O)c2ccc(-c3ccc(C(C)=O)cc3)o2)s1,-0.4,-0.1,-23.1,.,-5.1,-4.1,?
CSc1nccc(NC(=O)c2ccc(C(C)(C)C)cc2)n1,6.9,-31.1,3.7,-6.0,12.8,5.1,4388
COc1cccc(C(=O)Nc2cccc(-c3ccc(N4CCOCC4)nn3)c2)c1,1.2,-47.9,2.7,-4.3,11.1,0.1,5786
COc1ccccc1CNC(=O)c1cn(C)c2ccc(S(=O)(=O)N3CCCC3)cc2c1=O,11.2,-10.7,26.2,6.3,-8.7,-2.0,4247
COc1ccc(N=Nc2c(N)nn(C)c2N)cc1,1.8,-76.7,0.0,.,2.1,10.3,3885

# Molecules listed so far with an aryl thioether with sulfur outside any ring, in the order listed:
SMILES,Sa RN4220 lethal,PrP UTR inh,ugtP null kill,BJeLR viability,Mtb hypoxia inh,Mtb hypoxia inh growth,Bead autofluor
CNc1nc(Cl)c(SC)c(N2CCOCC2)n1,8.5,-0.6,4.4,3.2,7.4,5.0,2651
CCn1c(SCC(=O)NNC(=O)c2ccc(OC)cc2)nnc1C(C)C,0.3,0.5,-1.2,-3.8,-25.5,-8.8,6339
COc1ccccc1-n1c(SCC(=O)c2ccc(O)cc2O)nc2cc([N+](=O)[O-])ccc21,0.4,-116.8,-4.7,4.9,-0.4,0.4,2161
C=CCn1c(SCC(=O)NCC2CCCO2)nnc1-c1ccncc1 (centres undefined),-1.2,-3.4,-5.0,.,7.1,-6.4,.
CC(Sc1ncn[nH]1)C(=O)NCc1ccccc1 (centres undefined),1.8,-54.9,3.0,12.9,0.6,-8.5,4236
CCc1ccc(OCc2nnc(SCC(=O)NCC3CCCO3)n2C)cc1 (centres undefined),2.2,-14.0,5.4,-13.2,13.0,6.1,4681
COc1ccccc1CNC(=O)CSc1nnc2c(Cl)cc(C(F)(F)F)cn12,-1.1,-34.4,12.5,2.7,-2.8,7.4,2155
CSc1nccc(NC(=O)c2ccc(C(C)(C)C)cc2)n1,6.9,-31.1,3.7,-6.0,12.8,5.1,4388
